# VACV mCherry inh – inhibitors of vaccinia virus infection (mCherry reporter signal). Vaccinia virus mCherry reporter infection, fluorescence; about a quarter of the inactives have no number. 310,000 compounds, 0.63% hits. Potency, µM (highest dose often 36.5 µM), inactives show at the highest dose activity change, negative = inhibition, most hits filed as inhibitors; active = well fitted inhibition curve with a large enough effect; inconclusive = small, poorly fitted or top-dose-only effect; inactive = no such curve, though single readings can be large or run the other way; tested in A549 cells; also: nearly all actives have a fitted effect of over 35% in size; inactives centre near -10
# Vaccinia Venus – inhibitors of vaccinia virus (Venus reporter) | Vaccinia virus Venus reporter expression, fluorescence | Potency, µM (series often up to 36.5 µM), for the others: at the highest dose activity change, negative = inhibition, usual class: inhibitors | AID 720580 | 330,000 compounds, 0.46% hits; active means well fitted inhibition curve with a large enough effect; inconclusive means small, poorly fitted or top-dose-only effect; inactive means no such curve, though single readings can be large or run the other way; tested in A549 cells; also: nearly all actives have a fitted effect of over 30% in size; inactives centre near -10
# * hit, by the source's call; i = inactive; ? = inconclusive; · = not tested or not shown; [ ] = another dose, or the depositor's remark. % is scaled to controls: 0 for no effect and ±100 for the full control effect; potency is read from the fitted curve at half-maximal effect.
SMILES,VACV mCherry inh,Vaccinia Venus
COc1ccc([N+](=O)[O-])c(S(=O)(=O)c2ccc(Cl)cc2)n1,?,10µM*
CC(=O)N/C(=N/c1nc(C)cc(C)n1)Nc1ccc(C)cc1C,-17%,-11%
O=C(Nc1cccc(F)c1)c1cccc2c1C(=O)N(C1CCCCC1)C2,3%,2%
COc1ccccc1NC(=O)CC(C)n1nc(C)cc1C (configuration not stated),-2%,-5%
N#Cc1ccc(OCC(=O)Nc2ccccc2NS(=O)(=O)c2cccs2)cc1,i,-10%
O=C(Nc1ccc(OC(F)(F)F)cc1)c1ccc2nccnc2c1,-5%,-19%
C[C@H](CO)N1C[C@H](C)[C@H](CN(C)Cc2cncnc2)Oc2ncc(C#CC3(O)CCCC3)cc2C1=O,i,-9%
CN1CCN(C(=O)c2ccc3nc(-c4ccccc4)c(-c4ccccc4)nc3c2)CC1,-26%,-9%
CCC/C(=N/NC(=O)c1csc(C)c1C)c1ccc(Cl)s1,-23%,-9%
CCNC(=O)C1(C)CCN(Cc2ccc(C(F)(F)F)cc2)C1 (configuration not stated),3%,9%
Cc1nnc(NC(=O)CN2C(=O)NC3(CCCC3)C2=O)s1,i,-9%
COc1ccc(CCCNC(=O)C2Cc3c(-c4cccc(C(C)=O)c4)ccnc3O2)cc1 (configuration not stated),-1%,-22%
CCCN(c1c(C)n(C)n(-c2ccccc2)c1=O)S(=O)(=O)c1ccc(C)cc1,-11%,-11%
O=C(CN1C(=O)NC2(CCCCCCC2)C1=O)NCc1cccs1,i,-9%
O=C(c1cc2ccccc2oc1=O)N(Cc1cccc(Cl)c1)C1CCS(=O)(=O)C1 (configuration not stated),-7%,1%

# Part of the list above, with tabs:
mol	VACV mCherry inh	Vaccinia Venus
O=C(Nc1cccc(F)c1)c1cccc2c1C(=O)N(C1CCCCC1)C2	3%	2%
CCC/C(=N/NC(=O)c1csc(C)c1C)c1ccc(Cl)s1	-23%	-9%

# New compounds follow.
SMILES,VACV mCherry inh,Vaccinia Venus
Cc1ccc(C(=O)Nc2cccc(NC(=O)c3ccc(C)cc3)n2)cc1,-8%[7.34 µM],-6%[7.34 µM]
c1ccc(CCC2Cc3ccccc3N2)cc1 (configuration not stated),-4%,-3%
COc1ccc2[nH]c3c(c2c1)CCN1C(=O)C(CC(=O)NCCC2=CCCCC2)C[C@H](C(=O)N2CCOCC2)[C@@]31CCC1CCCC1 (some centres not stated),-12%,-24%
COc1ccc(CNC(=O)c2c3c(nc4ccccc24)C(=O)N(C2CCCCC2)C3)c(OC)c1,-4%,3%
Cc1ccc(C(=O)c2coc3ccc(OCC(=O)O)cc23)cc1,0%,-2%
COc1ccc(-c2nn(-c3ccccc3)cc2C(=O)NCC(c2cccs2)N2CCOCC2)cc1 (configuration not stated),-14%,-18%
Cc1nc(-c2cccc(NC(=O)c3ccc(-n4nccc4C)cc3)c2)cs1,-15%,-14%
S=C(NC1CCCC1)NN1CCOCC1,-5%,-8%
N#Cc1ccccc1NC(=O)CN(Cc1ccccc1)Cc1ccccc1,-13%,-14%
CCOC(=O)Cc1csc(NC(=S)NC(=O)c2ccc([N+](=O)[O-])cc2)n1,-3%,-14%
CCOc1ccc(-c2csc(C3COc4ccccc4O3)n2)cc1 (configuration not stated),-9%,-21%
O=C/C(=C\Nc1ccc(C(=O)N2CCOCC2)cc1)c1nc2ccccc2o1,5%,5%
CC(=O)c1ccc(NC(=O)CN2CCC(C(=O)c3ccc(F)cc3)CC2)cc1,-19%,-10%
C[C@H]1CN([C@@H](C)CO)C(=O)CCCn2nncc2CO[C@@H]1CN(C)Cc1ccccc1,i,-3%
CCN1c2ccccc2-n2cccc2C12CCN(C(=O)Nc1ccccc1C(F)(F)F)CC2,-18%,-20%
CCOC(=O)CNC(=O)CN1C(=O)CC(c2ccco2)Sc2ccccc21 (configuration not stated),-3%,-17%
O=C(OCc1cnc(Cl)s1)c1cccc(Cl)c1,·,-10%
CN(c1ccc(C(=O)Nc2cccnc2)cc1)S(=O)(=O)c1ccc(Cl)cc1,-22%,-19%
COc1cccc(CNCCc2c[nH]c3ccccc23)c1OC,-3%,-1%
COc1ccc(-c2ccc(C(=O)O)o2)c([N+](=O)[O-])c1,i,2%
CCC(C)C(=O)N[C@@H](c1ccccc1)[C@@H](O)C(=O)O[C@H]1C[C@@]2(O)[C@@H](OC(=O)c3ccccc3)C3[C@](C)(C(=O)[C@H](OC(C)=O)C(=C1C)C2(C)C)[C@@H](O)C[C@H]1OC[C@@]31OC(C)=O (some centres not stated),-5%,-23%
CCN(CC)S(=O)(=O)c1cc(NC(=O)COC(=O)Cn2cnc3ccccc32)ccc1C,-10%,-8%
COc1cccc(NC(=S)N(CCc2nc3cc(C)c(C)cc3[nH]2)Cc2cccnc2)c1,-13%,-7%
O=c1[nH]c2ccccc2n1C1CCN(Cc2ccc(-c3[nH]c4cc5ncnc5cc4nc3-c3ccccc3)cc2)CC1,?,?
Cc1c2cnn(-c3ccccc3)c(=O)c2c(C)n1CCCC(=O)NCCN1CCN(C)CC1,i,-9%
Cc1ccc(NC(=O)CN2C(=O)CCc3cc(S(=O)(=O)N4CCOCC4)ccc32)cc1F,-8%,1%
Cc1cc(C)cc(C(=O)NCC(=O)OC(C)C(=O)N(C)c2ccccc2)c1 (configuration not stated),-24%,-14%
Cc1ccccc1N1CC(C(=O)NC2CCCC2)CC1=O (configuration not stated),-11%,-7%
CCOCCCNC(=O)c1cc(=O)[nH]c2ccc(S(=O)(=O)N3CCCC3)cc12,2%,-1%
Cc1ccccc1N(C(=O)c1cccs1)c1nc2ccccc2s1,-2%,-11%
COc1ccccc1N(CC(=O)N(CC(C)C)CC(C)C)S(=O)(=O)c1cccs1,-20%,-3%
CC1Sc2n(c3ccccc3[n+]2C)N=C1c1ccccc1 (configuration not stated),-1%,-13%
O=C1NC(=O)/C(=C/c2ccc(-c3cccc([N+](=O)[O-])c3)o2)S1,-19%,-15%
Cc1cccc(C)c1N=C1SC(CC(=O)Nc2c(C)cccc2C)C(=O)N1CCc1ccccn1 (configuration not stated),-24%,-9%
O=C(CCn1c(=O)c2cccn2c2cccnc21)N1CCN(c2cccc(C(F)(F)F)c2)CC1,-18%,-6%
COc1cccc(C(=O)O/N=C(\N)c2ccc([N+](=O)[O-])cc2)c1,i,-3%
CCOC(=O)C1CCN(c2ccc(-c3cccs3)nn2)CC1,-24%,-4%
O=c1[nH]cnc2c1C(c1ccccc1)c1c(nc[nH]c1=O)O2,-12%,-10%
COc1ccc(CCN2C(=O)CC(Cc3ccc(Br)cc3)C2=O)cc1OC (configuration not stated),-5%,-17%
COC(=O)OCC12CCC(O1)C1(C)C(=O)OCC21 (configuration not stated),-9%,-8%
CC(NC(=O)CCC(=O)N1CCCCCC1)c1ccccc1 (configuration not stated),i,-4%
CC12CCC(=O)N1C(C(=O)Nc1ccc(Br)cc1Cl)CS2 (configuration not stated),-5%,-13%
CCN(c1ccccc1)c1nnc(NC(=O)Nc2cccc(Br)c2)s1,-22%,-17%
CCCOc1ccc(N2C(=O)CC(N(CCc3ccccc3)C(=O)c3ccccc3)C2=O)cc1 (configuration not stated),2%,-5%
COc1ccccc1N1CCN(Cc2nc3ccccc3c(=O)n2CC(C)=O)CC1,·,-7%
CC(C)c1ccc(OCC(=O)NCCO)cc1,-11%,-4%
CC(C)(O)CC[C@@H](O)[C@](C)(O)[C@H]1CC[C@@]2(O)C3=CC(=O)[C@@H]4C[C@@H](O)[C@@H](O)C[C@]4(C)C3CC[C@]12C (some centres not stated),4%,-1%
Cc1ccccc1C(=O)N(Cc1nc2ccccc2c(=O)[nH]1)C1CCCC1,?,-8%
C[C@H]1CN([C@@H](C)CO)S(=O)(=O)c2ccc(Br)cc2O[C@H]1CN(C)S(=O)(=O)c1ccccc1,-18%,-27%
CCCCCC(=O)NNC1=NCC(Cc2cccc(Cl)c2)S1 (configuration not stated),-20%,3%
Cc1ccc(CN2CCN(C3CCN(S(=O)(=O)c4ccc(C)cc4)CC3)C(=O)C2=O)cc1,-16%,-10%
C=CCC[C@H](Cc1ccc(F)cc1)C(=O)OC[C@H]1CCCN1C(=O)[C@@H](CC=C)CC(=O)NCCO,-8%,-20%
Cc1ccc(CN2C(=O)C(C)Nc3ncnc(N4CCN(c5ccccn5)CC4)c32)cc1 (configuration not stated),-6%,-21%
CC(C)NC(=O)N(C)C[C@@H]1OCCCC[C@@H](C)Oc2ccc(NC(=O)Nc3ccc(F)cc3)cc2C(=O)N([C@H](C)CO)C[C@@H]1C,-3%,-4%
CCCCCCCCN1N=N[C@H]2[C@H]1[C@@H]1C[C@H]2N(C(=O)OC(C)(C)C)O1,i,-10%
Clc1ccc(-c2nc3ccccc3nc2-c2ccccc2)cc1,-8%,-7%
NC1=NC(=O)/C(=C\c2ccc(-c3ccccc3[N+](=O)[O-])o2)S1,i,-2%
O=C(Oc1cccc(Oc2ccccc2)c1)N1CCOCC1,i,-19%
O=C(NC(=S)Nc1cc(C(F)(F)F)ccc1Cl)c1ccccc1,-5%,-4%
CCN(CC(=O)NC1CCS(=O)(=O)C1)S(=O)(=O)c1ccc(F)cc1 (configuration not stated),-11%,-11%

# Next records follow.
SMILES,VACV mCherry inh,Vaccinia Venus
Cn1c(=O)c2c([nH]c(=O)n2Cc2ccc(Cl)cc2Cl)n(C)c1=O,-2%,-4%
COc1ccc(CNC(=O)c2nc(SCc3ccc(C)cc3)ncc2Cl)cc1,-23%,-24%
Cc1ccc(OCCC(=O)OCC(=O)Nc2ccc(N3CCOCC3)cc2)cc1,-4%,0%
Cc1noc(/C=C/c2cccs2)c1S(=O)(=O)N1CCC(C(=O)NCc2ccc(Cl)cc2)CC1,-12%,-2%
NS(=O)(=O)c1ccc(N=Nc2ccc(=O)[nH]c2O)cc1,-4%,-3%
COc1ccc(NC(=O)CCc2nnc3ccc(NCc4ccco4)nn23)cc1,i,-1%
COc1ccccc1OC1=NS(=O)(=O)c2ccccc21,-6%,-9%

# Part of the list above in order of SMILES length, high to low:
SMILES,VACV mCherry inh,Vaccinia Venus
CC(C)(O)CC[C@@H](O)[C@](C)(O)[C@H]1CC[C@@]2(O)C3=CC(=O)[C@@H]4C[C@@H](O)[C@@H](O)C[C@]4(C)C3CC[C@]12C (some centres not stated),4%,-1%
CC(C)NC(=O)N(C)C[C@@H]1OCCCC[C@@H](C)Oc2ccc(NC(=O)Nc3ccc(F)cc3)cc2C(=O)N([C@H](C)CO)C[C@@H]1C,-3%,-4%
C[C@H]1CN([C@@H](C)CO)S(=O)(=O)c2ccc(Br)cc2O[C@H]1CN(C)S(=O)(=O)c1ccccc1,-18%,-27%
C=CCC[C@H](Cc1ccc(F)cc1)C(=O)OC[C@H]1CCCN1C(=O)[C@@H](CC=C)CC(=O)NCCO,-8%,-20%
Cc1noc(/C=C/c2cccs2)c1S(=O)(=O)N1CCC(C(=O)NCc2ccc(Cl)cc2)CC1,-12%,-2%
Cc1ccc(CN2CCN(C3CCN(S(=O)(=O)c4ccc(C)cc4)CC3)C(=O)C2=O)cc1,-16%,-10%
CCCOc1ccc(N2C(=O)CC(N(CCc3ccccc3)C(=O)c3ccccc3)C2=O)cc1 (configuration not stated),2%,-5%
Cc1ccc(CN2C(=O)C(C)Nc3ncnc(N4CCN(c5ccccn5)CC4)c32)cc1 (configuration not stated),-6%,-21%
NC1=NC(=O)/C(=C\c2ccc(-c3ccccc3[N+](=O)[O-])o2)S1,i,-2%
Cn1c(=O)c2c([nH]c(=O)n2Cc2ccc(Cl)cc2Cl)n(C)c1=O,-2%,-4%
COc1ccccc1N1CCN(Cc2nc3ccccc3c(=O)n2CC(C)=O)CC1,·,-7%
Cc1ccc(OCCC(=O)OCC(=O)Nc2ccc(N3CCOCC3)cc2)cc1,-4%,0%
COc1ccc(CNC(=O)c2nc(SCc3ccc(C)cc3)ncc2Cl)cc1,-23%,-24%
CCN(c1ccccc1)c1nnc(NC(=O)Nc2cccc(Br)c2)s1,-22%,-17%
O=C(NC(=S)Nc1cc(C(F)(F)F)ccc1Cl)c1ccccc1,-5%,-4%
NS(=O)(=O)c1ccc(N=Nc2ccc(=O)[nH]c2O)cc1,-4%,-3%
Clc1ccc(-c2nc3ccccc3nc2-c2ccccc2)cc1,-8%,-7%
CCCCCC(=O)NNC1=NCC(Cc2cccc(Cl)c2)S1 (configuration not stated),-20%,3%
O=C(Oc1cccc(Oc2ccccc2)c1)N1CCOCC1,i,-19%
CC(C)c1ccc(OCC(=O)NCCO)cc1,-11%,-4%

# Screening results as filed in PubChem BioAssay.
